D2 agonist: Beta-Arrestin HTS for Positive Allosteric Modulators of the Human D2 Dopamine Receptor: Agonists | DiscoveRx PathHunter D2 beta-arrestin, luminescence, 90 min; 100% = 57 uM dopamine signal | activation, % (test concentration not listed) | 0.084% of 360,000 active | AID 624465, 2012; in the data active = activation above about 40%; inconclusive = about 15% to 40%; inactive = below about 15%; note: compound concentration not given in the record; the text of the record calls up to 30% inactive
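Agonist mode: compounds alone added to overnight-plated D2 PathHunter cells for 90 min at 37 C, with 57 uM final dopamine (EC100) defining full response. Beta-arrestin recruitment detected by chemiluminescent reagent, read after 1 h at ambient temperature.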
TRPML1 inh: qHTS for Inhibitors of the Human Mucolipin Transient Receptor Potential 1 (TRPML1) | Mucolipin-1 (Homo sapiens), Q9GZU1 | TRPML1-inducible cells, Ca2+ dye fluorescence, FDSS; stronger effect = lower value; inhibition of EC80 agonist-evoked calcium signal | activity change, negative = inhibition, % (no concentration beside the values) | 0.02% of 390,000 active; in the data active means activity change below about -50%; inconclusive means about -30% to -50%; inactive means above about -30%;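 note: stimulus is agonist 54-4 at its EC80 concentration; % is set by controls: 0 for no effect and ±100 for the full control effect; compound concentration not given in the record; the text of the record puts the active cut at -80%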
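Calcium fluorescence in TRPML1-DL cells induced overnight with Tet: a 110 s read after compound pin addition, then a 110 s antagonist read after challenge with 54-4 at 4 uM final (EC80).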
Six1-Eya2 inh: qHTS Assay for Inhibitors of the Six1/Eya2 Interaction; Homeobox protein SIX1 (Homo sapiens) + Protein phosphatase EYA2 (Homo sapiens), …; AlphaScreen GST-Six1/His-Eya2 binding, biochemical; stronger effect = lower value; control for the full effect not named in the record; 0.56% of 360,000 active; activity change, % (test concentration not listed); AID 651725, 2012; in the data active = activity change below about -65%; inconclusive = about -30% to -65%; inactive = above about -30%; note: % is set by controls: 0 for no effect and ±100 for the full control effect; compound concentration not given in the record
Target sequence (O00167 whole entry, looked up): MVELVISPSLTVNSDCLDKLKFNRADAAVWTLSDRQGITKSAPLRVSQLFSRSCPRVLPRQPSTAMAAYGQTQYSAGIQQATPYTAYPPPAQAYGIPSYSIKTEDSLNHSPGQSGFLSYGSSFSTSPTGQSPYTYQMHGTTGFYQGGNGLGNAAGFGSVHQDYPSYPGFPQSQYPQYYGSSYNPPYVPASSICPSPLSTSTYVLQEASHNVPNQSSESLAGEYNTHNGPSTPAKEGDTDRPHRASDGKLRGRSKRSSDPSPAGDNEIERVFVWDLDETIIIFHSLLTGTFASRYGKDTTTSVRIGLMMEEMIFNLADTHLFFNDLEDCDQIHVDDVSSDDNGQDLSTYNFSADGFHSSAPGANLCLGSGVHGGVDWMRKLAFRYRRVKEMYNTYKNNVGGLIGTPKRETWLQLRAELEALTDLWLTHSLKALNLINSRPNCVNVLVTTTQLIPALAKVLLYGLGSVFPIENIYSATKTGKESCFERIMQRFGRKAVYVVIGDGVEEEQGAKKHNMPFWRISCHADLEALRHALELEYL
Target sequence (Q15475 whole entry, looked up): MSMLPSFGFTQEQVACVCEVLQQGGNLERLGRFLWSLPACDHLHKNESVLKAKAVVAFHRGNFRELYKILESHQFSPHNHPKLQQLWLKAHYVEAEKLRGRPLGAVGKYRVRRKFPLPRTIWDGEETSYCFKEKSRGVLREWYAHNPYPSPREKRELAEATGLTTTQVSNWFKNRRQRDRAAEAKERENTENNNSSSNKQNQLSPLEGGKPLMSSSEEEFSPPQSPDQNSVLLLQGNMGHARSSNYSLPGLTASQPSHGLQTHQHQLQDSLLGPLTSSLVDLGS
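Compounds are tested against tagged Six1 and Eya2 proteins bridged by glutathione donor and nickel acceptor beads; after a one-hour incubation at 37 °C without light, AlphaScreen emission is recorded.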
TRPML1 agonist: qHTS for Agonists of the Human Mucolipin Transient Receptor Potential 1 (TRPML1) | activation, % (test concentration not listed) | 0.12% of 410,000 active | AID 624414, 2012 | Mucolipin-1 (Homo sapiens), Q9GZU1 | TRPML1-expressing cells, Ca2+ dye fluorescence, FDSS; host cell line not named in the record; reference of the full effect not given here; in the data active = activation above about 50%; inconclusive = about 30% to 50%; inactive = below about 30%; note: 0% is about no effect; the text of the record puts the active cut at 80%
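Tet-induced TRPML1-DL cells, 1,500 per well, cultured overnight, were loaded with a no-wash Ca2+ dye for 45–90 min. Calcium fluorescence was recorded on the FDSS for 110 s after compound addition, before the EC80 agonist (4 uM 54-4) was added.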
PINK1 modulator: A Quantitative High throughput Screen to Identify Chemical Modulators of PINK1 Expression | AID 624263, 2012 | 0.2% of 410,000 active | PINK1 immunofluorescence, high-content cytometry, 24 h | Potency, µM (doses to about 76.6 µM), without a hit: at the top dose activation (PINK1 increase), usual class: activators; active = well fitted activation curve with a large enough effect; inconclusive = small, poorly fitted or top-dose-only effect; inactive = flat fitted curve, though single readings scatter; cell line not stated here;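 note: potency is the fitted concentration of half-maximal effect; % of control where 0% means no effect; nearly all actives have a fitted effect of over 65% in size; a mitochondrial uncoupler was the plate control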
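Fluorescence from anti-PINK1 antibody, together with nuclear and cell stains, was scanned on a laser-scanning cytometer. Before staining, stable-line cells were incubated 24 hours with compounds at 5 concentrations; primary antibody 12 h at 10 degrees C.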
CtBP-E1A blk: qHTS Assay for Inhibitors of the CtBP/E1A Interaction | CtBP / adenovirus E1A interaction (AlphaScreen) | AlphaScreen GST-E1A/His-CtBP binding, 1536-well; stronger effect = lower value; control for the full effect not named in the record | activity change, % (no concentration beside the values) | 0.49% of 340,000 active; in the data active means activity change below about -65%; inconclusive means about -30% to -65%; inactive means above about -30%; note: % is set by controls: 0 for no effect and ±100 for the full control effect; compound concentration not given in the record
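In 5 uL wells, 23 nL compound meets equimolar GST-E1A and His-CtBP (5X stock 125 nM each) for 2 h, 37 °C. Beads (5X, 50 ug/mL) then 1 h, 37 °C, dark.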
* hit, by the source's call; ? = inconclusive; nt = not tested or not shown; [ ] = another dose, or the depositor's remark.

SMILES	D2 agonist	TRPML1 inh	Six1-Eya2 inh	TRPML1 agonist	PINK1 modulator	CtBP-E1A blk
CCOc1ccccc1C(=O)N(CCC(=O)OC)c1ccccn1	-0.1	7	1	-0.5	-0.1%	4
C[C@H](NC(=O)N1CCC(Cc2ccccc2)CC1)C(=O)O	-7.6	-3	12	0.7	1.7%	-10
Cc1ccc(NC(=O)C2CCC(CNS(=O)(=O)c3ccc4c(c3)CCCC(=O)N4)CC2)c(C)c1 (stereo not drawn)	nt	5	nt	-1.2	0.7%	nt
COc1cc(CNCCSc2nnnn2C)cc(Br)c1OCc1ccc(F)cc1	-2.3	7	15	1.6	-0.1%	1
COc1cccc(CN(C)C(=O)CN2C(=O)NC(c3ccccc3)(c3ccccc3)C2=O)c1	-4.0	4	-10	-0.6	0.3%	-1
C=CCN1N=C(/C=C/c2ccc(OC)cc2)CCC1=O	1.0	-12	7	-0.5	-0.6%	1
O=C(Oc1ccc2ccccc2c1)c1cncc(Br)c1	-6.7	11	5	0.8	14%	-4
CC(C(=O)NNS(=O)(=O)c1cccc(C(F)(F)F)c1)n1nnc(N2CCOCC2)n1 (stereo not drawn)	-4.3	5	9	-0.7	-0.3%	-3
Cc1cc(C)c(NC(=O)CSc2cccc[n+]2[O-])c(C)c1	-3.1	6	7	-0.7	0.7%	9
N=c1c(C(=O)NC2CCCCC2)cc2c(=O)n3ccccc3nc2n1Cc1ccco1	-2.1	5	2	-0.3	-0.3%	2
CS(=O)(=O)N(Cc1ccccc1)c1ccc(C(=O)N2CCOCC2)cc1	-1.2	-1	-7	0.3	-0.4%	-3
COc1cc(CN2CC(C)OC(C)C2)cc(OC)c1 (stereo not drawn)	-1.8	-6	-2	-0.2	1.0%[38.3 µM]	-12
C=CCn1c(O)c(N=NC(=O)CNC(=O)/C=C/c2ccc(OC)cc2)c2ccccc21	-6.1	36	-15	2.1	2.6%	?
O=C(Nc1ccc(S(=O)(=O)Nc2ncccn2)cc1)c1ccc(Br)o1	-0.8	-18	1	2.6	-0.3%	nt
CCOc1ccccc1Nc1sc(C(=O)c2ccccc2)c(N)c1C(=O)NCCc1ccccc1	nt	2	nt	1.4	0.5%	nt
Clc1ccccc1-c1cc2nc(NCCCn3ccnc3)ccn2n1	-4.1	nt	-25	0.7	0.9%	-16
COc1ccc(C)cc1S(=O)(=O)N(C)CC(=O)NC1CCCCCC1	-1.4	9	7	0.8	-0.2%	-14
CCc1nn(CC(=O)NC(C)CC)c(=O)c2cc3c(OC)cccc3n12 (stereo not drawn)	nt	-15	nt	-0.3	0.3%	nt
CCOc1nc2c(c(-c3cccs3)c1C#N)Cc1ccccc1-2	0.9	8	0	1.2	2.9%	-2
COc1ccc(CCNC(=O)CSc2nnc3ccc(-c4ccncc4)nn23)cc1	0.1	nt	-1	nt	0.9%	-19
Cc1cc(N2CCOCC2)nc2ccc(NC(=S)N3CCN(c4ccccc4)CC3)cc12	0.7	-1	-19	2.8	1.9%	-27
Cc1cc(Cl)ccc1C(=O)C1CCCN(C(=O)c2ccsc2)C1 (stereo not drawn)	0.7	13	-5	1.8	0.0%	4
COc1cc2nc(CC(C)C)n(NC(=O)c3ccccc3)c(=O)c2cc1OC	-2.7	-10	3	0.2	0.9%	-4
Cc1ccc(Cn2cnc3ccccc32)cc1C	-1.3	-2	-4	2.5	3.7%	6
COc1ccc(N(CC(=O)NCCc2ccc(C)cc2)S(=O)(=O)c2c(C)noc2C)cc1	3.6	14	-1	0.0	0.9%	nt
Additional results.
SMILES	D2 agonist	TRPML1 inh	Six1-Eya2 inh	TRPML1 agonist	PINK1 modulator	CtBP-E1A blk
CCOc1ccc(C(=O)NCc2ccccc2)cc1Br	3.6	-4	7	3.6	-0.6%	3
CSCCC(NC(=O)c1cc([N+](=O)[O-])ccc1Cl)C(=O)O (stereo not drawn)	-0.2	-4	11	0.1	-0.1%	2
Cc1oc2cc(O)ccc2c(=O)c1Oc1ccc2ccccc2c1	-4.1	5	-1	-0.4	nt	10
O=C(NCCCn1ccnc1)C(=O)NCC1OCCCN1S(=O)(=O)c1ccc(F)cc1 (stereo not drawn)	-3.1	-12	1	0.5	1.8%	nt
Cn1c(=O)c([N+](=O)[O-])c(N2CCN(Cc3ccc4c(c3)OCO4)CC2)c2ccccc21	-0.7	1	?	0.6	0.1%	?
Cc1cc(C)n2c(Nc3ccc4c(c3)OCCO4)c(-c3ccc(C)o3)nc2n1	4.0	-15	-22	-0.3	0.4%	-3
O=C(NC(=S)Nc1nc(-c2ccccc2)cs1)c1ccco1	-6.3	5	-1	-0.4	4.0%	0
COc1ccc(/C=C(\C#N)C(=O)Nc2cc(S(=O)(=O)N3CCOCC3)ccc2N2CCCC2)cc1	-1.8	10	-18	-0.5	2.7%	-10
CCC(=O)Nc1c(C)nn(C(=O)CC)c1C	-1.3	-6	8	-0.4	-1.0%	-1
O=C1CCC(=O)N1N1C(=O)C2C3c4ccccc4C(c4ccccc43)C2C1=O (stereo not drawn)	0.2	-4	7	1.0	-1.4%	-18
CCn1c(SCC(=O)NC2=NCCS2)nnc1C(C)NC(=O)c1ccc(Cl)cc1 (stereo not drawn)	-4.1	42	-2	1.2	0.2%	-5
COc1ccc(C2=NS(=O)(=O)N(C)C(C(=O)NC3CCCC3)=C2)cc1OC	0.1	30	0	-0.5	0.6%	9
Cc1c(N(C)C(=O)c2ccccc2F)c(=O)n(-c2ccccc2)n1C	-0.3	30	10	3.9	1.5%	-3
O=C(NNC(=O)C1CC(c2cccs2)=NO1)Nc1ccccc1 (stereo not drawn)	-3.0	-5	6	-0.5	-0.8%	5
COc1ccc(C(=O)Nc2ccc(S(=O)(=O)Nc3cc(C)nc(C)n3)cc2)c(OC)c1	-2.8	-14	-5	0.4	-0.2%	-1
CCN(C(=O)COC(=O)CCC(=O)c1cccs1)C1CCCCC1	-5.0	-10	5	-0.4	-0.7%	nt
COc1ccc(Cl)cc1-c1nc(SCC(=O)NC(C)C(C)C)n[nH]1 (stereo not drawn)	2.6	-11	2	-0.3	1.8%	7
CN(C)c1ccc(-c2nnc(-c3cccnc3)o2)cc1	-1.3	7	26	0.1	-0.6%	10
O=C(O)c1cc2ccc(O)cc2oc1=O	-3.2	-2	17	3.2	-1.2%	0
CC1(C)Cc2ccccc2-c2[nH]c(=S)[nH]c(=O)c21	1.9	20	5	0.4	-0.7%	-2
CN1CCC(N(C)CC(=O)Nc2ccc3c(c2)OC(F)(F)O3)CC1	-3.1	-5	7	-0.4	0.5%	1
CCN1CCN(c2ncc3c(n2)CC(c2cc(OC)c(OC)c(OC)c2)CC3=O)CC1 (stereo not drawn)	-3.6	14	1	-0.5	7.6%	5
CCOCC(O)CNC(=O)c1ccc(OC2CCN(C(=O)c3cccnc3)CC2)cc1 (stereo not drawn)	0.7	7	-3	0.7	2.5%	4
C[C@H](CO)N1C[C@H](C)[C@H](CN(C)S(=O)(=O)c2ccc(F)cc2)Oc2ncc(Br)cc2C1=O	-1.5	-18	5	-0.3	-2.6%	-2
Cn1ccnc1CC(C)(O)c1ccccc1 (stereo not drawn)	-1.7	-3	-11	-0.6	3.2%	0

Entries of single compounds, quoted from the list:
COc1ccc(Cl)cc1-c1nc(SCC(=O)NC(C)C(C)C)n[nH]1 (stereo not drawn) is listed with D2 agonist = 2.6; TRPML1 inh = -11; Six1-Eya2 inh = 2; TRPML1 agonist = -0.3; PINK1 modulator = 1.8%; CtBP-E1A blk = 7
CCn1c(SCC(=O)NC2=NCCS2)nnc1C(C)NC(=O)c1ccc(Cl)cc1 (stereo not drawn) is listed with D2 agonist = -4.1; TRPML1 inh = 42; Six1-Eya2 inh = -2; TRPML1 agonist = 1.2; PINK1 modulator = 0.2%; CtBP-E1A blk = -5

Next section:
SMILES	D2 agonist	TRPML1 inh	Six1-Eya2 inh	TRPML1 agonist	PINK1 modulator	CtBP-E1A blk
Cc1ccc(CNc2nc3ccccc3s2)s1	-3.5	-23	0	1.7	12%	10
O=C1CC(c2ccccc2)CC(O)=C1C=NCCN1CCN(Cc2ccccc2)CC1 (stereo not drawn)	-5.1	-2	-16	0.2	0.9%	2
Cc1cccc(CNC(=O)c2cnc3sc(N4CCCCC4)nn3c2=O)c1	nt	-24	nt	-1.0	1.2%	nt
Cc1cc2oc(=O)cc(CN(C)Cc3ccccc3)c2cc1Cl	-4.4	22	19	1.9	1.5%	13
CCOC(=O)c1sc2ccccc2c1S(=O)(=O)Nc1ccc(OC)c(Cl)c1	nt	-4	nt	2.9	3.8%	nt
CN(c1ccccc1)S(=O)(=O)c1cccc(C(=O)NC2CCCCC2)c1	0.2	11	-1	7.5	3.6%	3
CNC(=O)c1oc(-c2ccc(Cl)cc2)nc1C	-0.7	11	-2	-0.2	-0.4%	nt
COc1ccc(-c2cc(C(=O)NC(C)C)no2)cc1	0.1	28	1	0.7	?	0
Cc1cc(C(=O)NC2CCCC2)on1	-2.2	-1	-5	-0.6	-1.0%	2
CN(C(=O)CSc1nc(-c2ccccc2)cs1)C1CCS(=O)(=O)C1 (stereo not drawn)	-2.9	0	-8	-0.2	2.0%	-2
CC(C)CCNC(=O)CN(Cc1ccco1)C(=O)CCC(=O)Nc1nccs1	2.2	16	-2	-0.3	0.9%	5
CCN1CCN(c2nc(N)c([N+](=O)[O-])c(Nc3ccc(C)cc3)n2)CC1	-4.0	3	3	-0.1	28%	-2
CCC(C)(C)NC(=O)C1CCN(S(=O)(=O)c2ccc3c(c2)CCCN3C(C)=O)CC1	nt	3	nt	0.6	-0.3%	nt
N#Cc1ccc(C(=O)Nc2cc(-c3ccccc3)nn2-c2ccccc2)cc1	0.0	25	0	2.3	?	1
CCCCC(=O)Nc1ccccc1C(=O)OCC(=O)c1ccc2c(c1)OCCO2	-0.6	0	22	5.3	0.8%	10
CC(C)[C@H](NC(=O)c1ccco1)C(=O)OCC(=O)NC12CC3CC(CC(C3)C1)C2	-4.1	8	-1	0.9	0.4%	-3
Cc1n[nH]c(=S)n1/N=C/c1cccc(OCc2ccccc2)c1	0.8	18	-29	0.9	14%	-7
CCC1C(=O)N=C(SCC(=O)Nc2cccc3ccccc23)NC1=O (stereo not drawn)	-1.2	6	19	0.9	13%[38.3 µM]	30
COc1ccccc1NC(=O)Nc1cc(C(C)C)ccc1C	10	19	2	1.2	5.7%	6
Cc1ccc(S(=O)(=O)N2CCN(C(=O)CCc3c[nH]c4ccccc34)CC2)cc1	-3.8	-3	-10	-0.8	1.6%	nt

An excerpt from above in order of their number in PINK1 modulator, lowest first.
canonical_smiles,D2 agonist,TRPML1 inh,Six1-Eya2 inh,PINK1 modulator,CtBP-E1A blk
Cc1cc(C(=O)NC2CCCC2)on1,-2.2,-1,-5,-1.0%,2
CNC(=O)c1oc(-c2ccc(Cl)cc2)nc1C,-0.7,11,-2,-0.4%,nt
CC(C)[C@H](NC(=O)c1ccco1)C(=O)OCC(=O)NC12CC3CC(CC(C3)C1)C2,-4.1,8,-1,0.4%,-3
